Screening results from PubChem BioAssay.
KCNQ2 block: KCNQ2 potassium channel inhibitors, primary screen, cell-based, CHO-K1, FluxOR thallium flux, B-score (AID 2156); O88943; 20 min; stronger effect = lower value; only compounds with negative scores are shown here; some inactives read as strong as hits; B-score at 10 µM; 310,000 compounds, 1.1% hits;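 active = fluorescence ratio B-score at most minus 3 library SDs, with starting brightness B-score within 2 library SDs, cut at about -5.5 in these data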
Target sequence (O88943 whole entry, looked up): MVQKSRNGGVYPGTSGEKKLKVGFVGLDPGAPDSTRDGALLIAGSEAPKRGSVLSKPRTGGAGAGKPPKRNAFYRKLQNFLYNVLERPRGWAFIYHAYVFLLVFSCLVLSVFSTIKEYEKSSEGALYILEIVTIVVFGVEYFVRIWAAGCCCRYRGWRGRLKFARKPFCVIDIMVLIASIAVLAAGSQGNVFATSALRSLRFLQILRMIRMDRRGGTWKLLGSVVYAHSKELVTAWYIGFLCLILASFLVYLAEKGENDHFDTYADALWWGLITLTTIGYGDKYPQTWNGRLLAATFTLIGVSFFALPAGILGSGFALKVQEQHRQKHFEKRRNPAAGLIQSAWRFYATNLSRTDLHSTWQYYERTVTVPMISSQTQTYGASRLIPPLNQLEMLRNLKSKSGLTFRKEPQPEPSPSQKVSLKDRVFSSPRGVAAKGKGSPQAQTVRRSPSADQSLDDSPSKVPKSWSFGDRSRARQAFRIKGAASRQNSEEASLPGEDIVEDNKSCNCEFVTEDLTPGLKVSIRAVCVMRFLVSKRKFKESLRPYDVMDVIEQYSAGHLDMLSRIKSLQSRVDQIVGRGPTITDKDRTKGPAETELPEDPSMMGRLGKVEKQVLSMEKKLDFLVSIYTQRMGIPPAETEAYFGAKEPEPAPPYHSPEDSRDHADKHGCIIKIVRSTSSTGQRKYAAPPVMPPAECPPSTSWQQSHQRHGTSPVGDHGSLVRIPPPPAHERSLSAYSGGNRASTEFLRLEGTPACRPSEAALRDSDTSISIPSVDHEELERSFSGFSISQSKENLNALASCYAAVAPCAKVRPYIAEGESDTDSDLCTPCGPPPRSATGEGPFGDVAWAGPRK
KCNQ2 block baseline: second read-out of KCNQ2 block, no call of its own (marks repeat the call); B-score; measured here: initial fluorescence intensity artifact check;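 brightness before thallium and not channel activity; 0 = typical well and far values either way flag optical interference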
Active calls of the source: *; i = inactive. Only part of the results is shown; the hit share may differ from the screen's.

SMILES	KCNQ2 block	KCNQ2 block baseline
COc1ccccc1NC(=O)Nc1nc(CC(=O)NCc2cccnc2)cs1	i	1.9
CC(=O)c1ccc(NC(=O)COc2ccc3c(c2)OCO3)cc1	i	0.32
COc1ccc(-c2nc(N)nc(C(F)(F)F)c2-c2ccccc2OC)c(O)c1	i	-0.58
CCOC(=O)C1CCCN(c2nc3ccccc3nc2C(C#N)C(=O)OC(C)C)C1 (stereo not drawn)	i	2.1
Cc1cccc(N2CCN(C(=O)c3cnn4c(C(F)F)cc(-c5ccccc5)nc34)CC2)c1C	i	2.1
COc1ccc(NC(=O)/C(C#N)=C/c2ccc(Sc3nncn3C)c([N+](=O)[O-])c2)cc1	i	0.25
CC(=O)c1ccc(NC(=O)CSc2nnc(Cc3cccn3C)n2-c2ccc(F)cc2)cc1	i	-0.28
CC(C)(Sc1cc(C(C)(C)C)c(O)c(C(C)(C)C)c1)Sc1cc(C(C)(C)C)c(O)c(C(C)(C)C)c1	i	-0.34
O=C1CC(Nc2ccccc2)C(=O)N1CCc1ccccc1 (stereo not drawn)	i	-0.92
C(=N\n1cnnc1)/c1ccccc1OCCOc1ccccc1	i	0.87
CN1C=CC=C/C1=C1\SC(=S)N(Cc2ccccc2)C1=O	i	0.46
CCOc1ccc(NC(=O)CN2C(=O)CSc3ccc(S(=O)(=O)N4CCCC4)cc32)cc1	i	0.76
O=C(NCCCc1ccccc1)c1cccc([N+](=O)[O-])c1	i	-8.5
CCCCOc1ccc2c(c1)C(=O)c1cc(O)ccc1-2	i	2
CCOC(=O)C(C)(C)Sc1ncnc2nc[nH]c12	i	1.3
CSc1ccc(-c2nnn(Cc3ccc(Br)cc3)n2)cc1	i	0.96
COc1cc(C(=O)N/N=C/c2coc3ccc(Cl)cc3c2=O)ccc1O	i	-0.02
O=C(COc1ccc(Cl)cc1)NCCSCc1ccccc1Cl	i	0.16
COc1cc(OC)cc(C(=O)OCc2ccc([N+](=O)[O-])cc2)c1	i	0.26
Cc1nn2c(-n3ccnc3C)c3c(nc2c1-c1ccccc1)CCC3	i	-3.5
COc1ccc(C2Nc3ccccc3C(=O)N2NC(C)=O)cc1OC (stereo not drawn)	i	0.03
Cc1ccc(-c2noc(C3CCCN(C(=O)c4ccc(Cl)cc4)C3)n2)o1 (stereo not drawn)	i	0.71
Cc1ccc(C(C)(O)CS(=O)(=O)Cc2ccccc2)cc1 (stereo not drawn)	i	-1.6
CCOC(=O)C1=C(C)NC(=NC)SC1c1ccccc1 (stereo not drawn)	i	3.4
OC(CN1CCOCC1)(c1ccccc1)c1ccccn1 (stereo not drawn)	i	1.7
(listing goes on)
SMILES	KCNQ2 block	KCNQ2 block baseline
COc1cc(/C=N/Nc2ccc(C)cc2)cc(Br)c1O	i	-0.47
COc1ccc2cc(Br)ccc2c1CC(=O)NC(C)(C)C	i	-0.74
Cc1ccccc1C(=O)Nc1nc(-c2cccnc2)cs1	i	-1.3
COCCCNC(=S)NNC(=S)Nc1ccc(F)cc1F	i	2
Cc1ccc(N2CCN(CC(O)COc3cccc(C)c3)CC2)cc1 (stereo not drawn)	i	0.03
CCOc1ccc(N2Nc3n[nH]c(N)c3N2)cc1	i	-0.1
CCCNC(=O)c1onc(CSc2cccc(OC)c2)c1C(=O)NCCC	i	0.49
CN(Cc1ccccc1)C(=O)c1ccccc1Br	i	-0.81
CC1=C(C(=O)Nc2cccc(C(=O)N3CCN(c4cccc(C(F)(F)F)c4)CC3)c2)SCCO1	i	-0.32
O=C(c1ccccc1)N1CCN(c2nc3ccc([N+](=O)[O-])cc3s2)CC1	i	2.9
COc1ccccc1/C=C(/CC(=O)NCc1ccc2c(c1)OCO2)c1nc2ccccc2s1	i	-0.75
O=C(CSc1ccccc1C(=O)O)NCc1ccco1	i	2.3
CS(=O)(=O)c1ccc(CNC(=O)C2(C(F)(F)F)CC(CCCO)CCCO2)cc1 (stereo not drawn)	i	0.45
O=C(CSc1nnc(-c2ccccc2)c(-c2ccccc2)n1)NCc1ccco1	i	0.77
Brc1cccc(-c2nnc3sc(CN4CCCCC4)cn23)c1	i	2
Cn1cc(S(=O)(=O)N2CCCC2)cc1C(=O)N1CCN(c2cccc(Cl)c2)CC1	i	0.02
O=S(=O)(c1ccccc1)N1CCN(C(=S)Nc2ccc(F)cc2)CC1	i	1.4
CCn1ccnc1CN(C)Cc1cn(-c2cc(C)ccc2C)nc1-c1ccccc1	-8.2*	0.37*
Cc1nn(-c2ccccc2)c(C)c1/C=N/Nc1nc2ccccc2[nH]1	i	-1.2
NC(=O)c1ccccc1OCC(=O)NS(=O)(=O)c1ccccc1	i	-0.02
COc1ccc([N+](=O)[O-])cc1NC(=O)CCN1CCN(CCO)CC1	i	0.15
Cc1ccc(N2CCC(N3CCN(C4CCCCC4)C(CCO)C3)CC2)cc1 (stereo not drawn)	i	-0.51
COCCCN(C(=S)Nc1ccc(OC)cc1)C(C)c1ccncc1 (stereo not drawn)	i	0.65
Cc1ccc(-c2ccc(S(=O)(=O)NCC3CCCO3)cc2)cc1 (stereo not drawn)	i	-1.2
CC(=O)N1CSCC1C(=O)NNS(=O)(=O)c1ccccc1 (stereo not drawn)	i	-1.6
(listing goes on)
SMILES	KCNQ2 block	KCNQ2 block baseline
COC(=O)c1nc(N)sc1C(C)C	i	0.59
C=CCn1c(SCc2cc(=O)n3cc(C)ccc3n2)nnc1-c1ccc(F)cc1	i	1.4
O=C(NCCCN1CCOCC1)c1c(F)c(F)c(F)c(F)c1F	i	1.5
COc1ccc(C2(C(=O)NC3CCCCC3)CCOCC2)cc1OC	i	-0.7
C=CCNc1nc(NCc2ccccc2)nc(OCC)n1	i	1
OC(COC(c1ccccc1)c1ccccc1)CN1CCc2ccccc2C1 (stereo not drawn)	i	0.82
COc1ccc(C(=O)/C=C/Nc2ccc([N+](=O)[O-])cc2C)c(OC)c1	i	-1.7
Cc1ccc(-c2noc(C3CCN(C(=O)Nc4ccc(C#N)cc4)CC3)n2)o1	i	-0.29
Cc1c(NC(=O)c2ccc(N(C)S(C)(=O)=O)cc2)c(=O)n(-c2ccccc2)n1C	i	1.5
COc1ccc(C(=O)NN(c2ccccc2)c2ccccc2)cc1	i	0.63
O=C(O)c1ccccc1NC(=O)c1ccccc1-c1ccccc1C(=O)O	i	1.4
Cc1[nH]n(C2=NCCS2)c(=O)c1N=Nc1cccc(C(F)(F)F)c1	i	1.5
COc1ccc(CCNc2nc(-c3ccc(F)cc3)c(CC(=O)O)s2)cc1OC	i	0.56
COc1cc(OC)cc(C(=O)N[C@H](C(=O)NCc2ccc(F)cc2)C(C)C)c1	i	-0.12
Cc1ccc(-c2nnc(SCC(=O)N/N=C/c3cccs3)n2-c2ccc(C)cc2)cc1	i	-0.69
CC(=O)Nc1sc2c(c1C#N)CCCC2	i	-1.6
Cc1cc(OC(=O)c2ccc(F)cc2)c([N+](=O)[O-])c(=O)[nH]1	i	-0.99
O=C(NC1CCCCC1)C(c1ccccn1)N(C(=O)Cc1cccs1)c1ccc(Cl)cc1 (stereo not drawn)	i	0.46
COc1nc(-c2ccc(Cl)cc2)nnc1C	i	-0.1
Cc1c(Cl)cccc1N=C1SCCN1C(=O)CN1C(=O)NC2(CCCC2)C1=O	i	1.4
O=C(NCCC1CCCCN1S(=O)(=O)c1ccccc1)C(=O)NCCN1CCOCC1 (stereo not drawn)	i	1.9
COCCCN(C(=O)Nc1ccccc1)C(C)c1ccncc1 (stereo not drawn)	i	1.4
O=C(O)c1[nH]c2ccccc2c1NS(=O)(=O)Cc1ccccc1	i	-0.3
Fc1ccc(C(c2nnnn2Cc2ccco2)N2CCN(C3CCCCC3)CC2)cc1 (stereo not drawn)	i	0.28
COC(=O)c1ccc(OC(=O)c2cccnc2SC)cc1	i	-1.6

Reformatted with values under each structure: part of the list above.
Every second line gives: KCNQ2 block	KCNQ2 block baseline
COc1ccc(-c2nc(N)nc(C(F)(F)F)c2-c2ccccc2OC)c(O)c1
→ i	-0.58
Cc1[nH]n(C2=NCCS2)c(=O)c1N=Nc1cccc(C(F)(F)F)c1
→ i	1.5

14 entries from above, set out differently.
Molecule | KCNQ2 block | KCNQ2 block baseline
O=C(NCCCN1CCOCC1)c1c(F)c(F)c(F)c(F)c1F | i | 1.5
COc1ccc(C2(C(=O)NC3CCCCC3)CCOCC2)cc1OC | i | -0.7
C=CCNc1nc(NCc2ccccc2)nc(OCC)n1 | i | 1
OC(COC(c1ccccc1)c1ccccc1)CN1CCc2ccccc2C1 (stereo not drawn) | i | 0.82
COc1ccc(C(=O)/C=C/Nc2ccc([N+](=O)[O-])cc2C)c(OC)c1 | i | -1.7
Cc1ccc(-c2noc(C3CCN(C(=O)Nc4ccc(C#N)cc4)CC3)n2)o1 | i | -0.29
Cc1c(NC(=O)c2ccc(N(C)S(C)(=O)=O)cc2)c(=O)n(-c2ccccc2)n1C | i | 1.5
COc1ccc(C(=O)NN(c2ccccc2)c2ccccc2)cc1 | i | 0.63
O=C(O)c1ccccc1NC(=O)c1ccccc1-c1ccccc1C(=O)O | i | 1.4
Cc1[nH]n(C2=NCCS2)c(=O)c1N=Nc1cccc(C(F)(F)F)c1 | i | 1.5
COc1ccc(CCNc2nc(-c3ccc(F)cc3)c(CC(=O)O)s2)cc1OC | i | 0.56
COc1cc(OC)cc(C(=O)N[C@H](C(=O)NCc2ccc(F)cc2)C(C)C)c1 | i | -0.12
Cc1ccc(-c2nnc(SCC(=O)N/N=C/c3cccs3)n2-c2ccc(C)cc2)cc1 | i | -0.69
CC(=O)Nc1sc2c(c1C#N)CCCC2 | i | -1.6

(more compounds)
SMILES	KCNQ2 block	KCNQ2 block baseline
CCOc1cc(/C=N/NC(=O)C(O)(c2ccccc2)c2ccccc2)ccc1OC(=O)c1ccco1	i	-1.6
Cc1ccccc1Cc1c(C)nc2c(C(=O)NCc3ccc4c(c3)OCO4)cnn2c1C	i	1.5
O=C1NC(=O)C2C1C(c1ccc([N+](=O)[O-])cc1)=NN2Cc1ccccc1 (stereo not drawn)	i	-0.63
COc1ccc(-c2ccc(C(=O)O)c(=O)[nH]2)cc1	i	0.03
O=C(Cc1ccc(Cl)cc1)Nc1ccc2c(c1)C(=O)NC2=O	i	0.02
Cc1ccc2oc(-c3ccco3)nc2c1	i	0.02
CC(=O)c1cccc(NC(=O)CC2SC(N3CCCCC3)=NC2=O)c1 (stereo not drawn)	i	0.71
Cn1c(=O)c2c(nc(N3CCOCC3)n2Cc2c(F)cccc2Cl)n(C)c1=O	i	0.03
CCn1c2c(c(=N)c3ccccc31)CCC2	i	-2.1
COc1cccc(CNC(=O)C(Cc2ccccc2)n2cccc2)c1 (stereo not drawn)	i	-0.59
Cc1cc(C)c(NC(=O)CSc2ccc3nnc(CCNC(=O)c4ccccc4)n3n2)c(C)c1	i	0.83
COc1cccc(Oc2nccc(N(C)C)c2C#N)c1	i	-1.8
CCCCC1=CC2=CC(=O)C(C)(OC(=O)CC)C(=O)C2=CN1Cc1ccc2c(c1)OCO2 (stereo not drawn)	i	1.6
CCOC(=O)N1C(=O)[C@](c2ccc(Cl)cc2)(C(C)C)N1C(=O)OCC	i	-1.2
Cc1nccc(-c2cc(-c3ccc(Cl)cc3Cl)no2)n1	i	0.95
CCSc1nnc(-c2cnn(-c3ccccc3)c2-n2cccc2)n1C	i	-0.1
CC1=C(C(=O)OCc2ccccc2)C(c2ccc(Cl)cc2)NC(=O)N1C (stereo not drawn)	i	0.02
O=C(CSc1nnc(-c2ccncc2)n1CC1CCCO1)Nc1ccccc1Cl (stereo not drawn)	i	1.4
CC12CCC(C(=O)NCc3ccccn3)(OC1=O)C2(C)C (stereo not drawn)	i	-0.05
COc1ccc(CN/C=C2\CCCCC2=O)cc1	i	-0.05
CCOC(=O)C1(Cc2ccc(OC)cc2)CCN(C(=O)C2CCCO2)CC1 (stereo not drawn)	i	1.3
CCNc1ccc(S(=O)(=O)N(C)C)cc1NCC(=O)Nc1ccccc1Cl	i	-0.19
COC(=O)C1(CC2CC(c3ccc(Cl)cc3)=NO2)CCN(C(=O)OC(C)(C)C)CC1 (stereo not drawn)	i	-1.6
CCOC(=O)C1CCN(C(=O)c2oc3ccc(S(=O)(=O)N4CC(C)CC(C)C4)cc3c2C)CC1 (stereo not drawn)	i	1.2
COc1cc(NC(=O)c2c(OC)cccc2OC)ccc1NC(=O)c1cc2ccccc2o1	i	0.54
More compounds
SMILES	KCNQ2 block	KCNQ2 block baseline
COc1ccc(Br)cc1CN1CCN(c2ncccn2)CC1	i	0.69
c1ccc(-c2cc3c(NCC4COc5ccccc5O4)ncnc3s2)cc1 (stereo not drawn)	i	0.03
Cc1cnc(NC(=O)CCCSc2nc3ccccc3s2)s1	i	-1.3
CC(C)CC(=O)N1CCN(Cc2ccc(Br)cc2)CC1	i	0.12
Cc1ccc(C)c(-n2cc(CN3CCN(C(=O)c4ncn[nH]4)CC3)c(-c3ccccc3)n2)c1	i	-0.68
COc1ccc(/C(C)=N/NC(=O)CNC(=O)c2cccs2)cc1OC	i	-0.68
FC(F)Oc1ccccc1NC(=S)Nc1cccc(Cl)c1Cl	i	-1.4
COc1cc(C(=O)N2CCCCCCC2)ccc1OC1CCN(C(C)=O)CC1	i	1.5
O=C(COC(=O)C12CC3CC(CC(C3)C1)C2)NCCCc1ccccc1	i	2.5
COc1ccc(/C=C2\CCCC3C2=NN(C(=O)c2ccco2)C3c2ccc(OC)c(OC)c2)cc1OC (stereo not drawn)	i	1.2
Nc1ccc2c(c1)ncn2CCCn1cnc2cc(N)ccc21	i	3.2
COC(=O)c1c(NC(=O)CCl)sc(C(=O)N2CCOCC2)c1C	i	-0.01
O=C(Nc1c(C(=O)N2CCN(c3ccccn3)CC2)oc2ccccc12)c1cccc([N+](=O)[O-])c1	i	0.02
Cn1cnnc1SCC(=O)N/N=C/c1ccc(OCC(N)=O)cc1	i	-0.05
CCC(=O)N1N=C(c2ccccc2)CC1c1ccc([N+](=O)[O-])cc1 (stereo not drawn)	i	-2
Cc1ccc(C)c(NC(=O)CCC(=O)NNC(=O)C(c2ccccc2)c2ccccc2)c1	i	0.89
O=C(CSc1nnc(COc2ccc(F)cc2)o1)N1c2ccccc2CCc2ccccc21	-6.6*	-0.39*
